Screening results (PubChem BioAssay)
Menin-MLL FL inh: menin-MLL binding inhibition, fluorescein peptide | Fluorescence polarization, fluorescein-MLL peptide displacement from menin | FP activity change, % at 61.4 µM | 290,000 tested, under 10 active; inconclusive = falling polarisation curve, or a change in total fluorescence; inactive = total fluorescence flat and polarisation flat or rising; no compound was filed as active; the % refers to the polarisation; negative = inhibition;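 note: % of control where 0% means no effect; inhibitors lower the polarisation; unlabelled MLL peptide was the positive control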
TRPV1 potentiator: human TRPV1 potentiation | Q8NER1 | TRPV1-expressing cells, Fluo-8 calcium influx, capsaicin EC20 potentiation; host cell line not named in the record; control for the full effect not named in the record | potentiation, % at 8.33 µM | 0.02% of 320,000 active; active means potentiation above 80%; inconclusive means 30% to 80%; inactive means below 30%; note: 0% is about no effect
Target sequence (Q8NER1 whole entry, looked up): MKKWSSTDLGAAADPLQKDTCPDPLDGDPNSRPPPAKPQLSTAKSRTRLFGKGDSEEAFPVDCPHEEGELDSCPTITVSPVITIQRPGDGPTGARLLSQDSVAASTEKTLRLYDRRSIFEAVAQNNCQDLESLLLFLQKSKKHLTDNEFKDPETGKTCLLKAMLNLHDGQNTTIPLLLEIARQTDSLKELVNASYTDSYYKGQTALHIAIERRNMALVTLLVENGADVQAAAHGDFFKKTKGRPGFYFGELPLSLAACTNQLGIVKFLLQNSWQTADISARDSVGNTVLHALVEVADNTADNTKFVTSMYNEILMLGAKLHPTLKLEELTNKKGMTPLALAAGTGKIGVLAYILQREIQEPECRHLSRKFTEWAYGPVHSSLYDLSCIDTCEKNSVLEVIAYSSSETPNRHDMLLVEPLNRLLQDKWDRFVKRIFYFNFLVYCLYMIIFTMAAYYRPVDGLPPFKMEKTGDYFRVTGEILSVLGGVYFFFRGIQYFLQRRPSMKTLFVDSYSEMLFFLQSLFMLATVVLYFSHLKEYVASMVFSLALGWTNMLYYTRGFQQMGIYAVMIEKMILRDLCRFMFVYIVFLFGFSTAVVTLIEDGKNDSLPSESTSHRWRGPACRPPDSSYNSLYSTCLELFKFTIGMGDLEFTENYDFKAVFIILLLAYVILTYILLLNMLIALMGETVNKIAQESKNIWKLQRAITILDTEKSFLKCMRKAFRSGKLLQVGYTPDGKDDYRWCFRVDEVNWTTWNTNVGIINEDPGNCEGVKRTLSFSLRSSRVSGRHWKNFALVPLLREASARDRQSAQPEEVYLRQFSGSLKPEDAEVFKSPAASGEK
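Cells expressing TRPV1 were dye-loaded with Fluo-8 and read kinetically: 10 s baseline, 3 min after compound (agonist portion), then 2 min after EC20 capsaicin (allosteric enhancer portion). Calcium-bound dye fluorescence at 480/520 nm.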
ClpP mod: qHTS Assay for Activators of ClpP; AID 651965, 2013; 1.9% of 340,000 active; purified B. subtilis ClpP, FRET peptide cleavage, 20 min; ATP-dependent Clp protease proteolytic subunit (Bacillus subtilis (strain 168)), P80244; Potency, µM (highest dose often 57.5 µM), without a hit: top-dose activity change, negative = active; active = well fitted falling curve with a large enough effect; inconclusive = small, poorly fitted or top-dose-only effect; inactive = no such curve, though single readings can be large or run the other way; note: potency is the fitted concentration of half-maximal effect; the source files actives as falling curves though it sought activators and does not explain the sign; nearly all actives have a fitted effect of over 65% in size; many hits overshoot -100%
Target sequence (P80244 whole entry, looked up): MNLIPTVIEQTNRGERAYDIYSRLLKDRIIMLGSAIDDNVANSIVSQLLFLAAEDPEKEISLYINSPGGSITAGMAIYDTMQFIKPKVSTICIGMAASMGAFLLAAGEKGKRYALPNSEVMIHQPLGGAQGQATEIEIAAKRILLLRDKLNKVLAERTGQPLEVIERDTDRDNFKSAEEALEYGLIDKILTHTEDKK
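Purified B. subtilis ClpP, 10 microg/mL final in Tris/HCl pH8 with KCl, BSA, glycerol and Tween-20, cleaved an Abz/nitrotyrosine-quenched decapeptide. Fluorescence (ex 320, em 430) was read at 0 and 20 min at room temperature. Delta was normalized to 5.8 microM ADEP and DMSO/no-enzyme controls.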
Sfp inh: blocks B. subtilis Sfp PPTase activity. Biochemical Sfp PPTase activity, qHTS. Potency, µM, for the others: max response, negative = inhibition, most hits filed as inhibitors. 3.5% of 310,000 active. AID 1490; active = well fitted inhibition curve with a large enough effect; inconclusive = small, poorly fitted or top-dose-only effect, or another doubt; inactive = no such curve, though single readings can be large or run the other way;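 note: the enzyme is Sfp with the accession as filed and its product quenches rhodamine fluorescence; potency is the fitted concentration of half-maximal effect; 0% = enzyme reaction without inhibitor and -100% = no enzyme wells; top concentration of the series not given in the record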
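With Hepes-Na pH 7.6 buffer containing 10 mM MgCl2, Sfp (15 nM) modified BHQ-2-YbbR (12.5 uM) using rhodamine-CoA (5 uM). Two reads 30 minutes apart at 525/598 nm yielded each well's rate.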
D2 PAM: human D2 receptor positive allosteric modulation | DiscoveRx D2 beta-arrestin cells, luminescence, 90 min; 100% = 57 uM dopamine signal | 0.23% of 360,000 active | potentiation, % (test concentration not listed) | AID 624464; active = potentiation of 50% or more; inconclusive = 30% to 50%; inactive = 30% or less;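 note: compound concentration not given in the record; tested on top of an EC20 dose of dopamine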
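PathHunter D2 cells, attached overnight at 37 deg C, received compound in DMSO plus dopamine at EC20 (50 nM final) for 90 min at 37 deg C. Beta-arrestin recruitment was read as luminescence after 1 h with detection reagent at ambient temperature.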
gsp ag: gsp mutant agonism; gsp mutant cells, cAMP HTRF, 30 min; control for the full effect not named in the record; Potency, µM (series often up to 76.9 µM), for inactives: top-dose activation (cAMP increase), usual class: activators; 0.13% of 340,000 active; AID 624287; active = well fitted activation curve with a large enough effect; inconclusive = small, poorly fitted or top-dose-only effect, or another doubt; inactive = no such curve, though single readings can be large or run the other way; cell line not stated here;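 note: phosphodiesterase inhibitor Ro 20-1724 added with compounds to block cAMP breakdown; potency is the fitted concentration of half-maximal effect; nearly all actives have a fitted effect of over 60% in size; about a fifth of the inactives were tested at one dose only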
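Cells in DMEM/10% FBS with G418 were pretreated with compounds in DMSO plus […] (300 uM stock) for 30 min at 37C. cAMP was measured by HTRF (cAMP-d2 plus anti-cAMP antibody-K) after 30 min at room temperature.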
gsp antag: antagonists of gsp mutant (McCune-Albright syndrome); AID 624288; gsp-mutant cells, cAMP HTRF, 30 min; control for the full effect not named in the record; Potency, µM (top dose mostly 76.9 µM), for the others: at the highest dose activity change, negative = inhibition, actives largely listed as inhibitors; 0.4% of 340,000 active; active = falling curve of any shape with a large fitted effect; inconclusive = falling curve, mostly with a smaller effect; inactive = flat or rising curve; cell line not stated here;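 note: intracellular cAMP measured with PDE inhibitor Ro 20-1724 present during compound exposure; potency is the fitted concentration of half-maximal effect; % is set by controls: 0 for no effect and ±100 for the full control effect; nearly all actives have a fitted effect of over 65% in size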
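HTRF cAMP read-out (cAMP-d2 plus anti-cAMP antibody-K in lysis buffer, 30 min RT). Before lysis, cells are exposed to compounds with […] for 30 min at 37C in DPBS containing Ca/Mg, BSA and Tween 20.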
Active calls of the source: *; [ ] = dose if it differs, or a comment.

Screening O=C(CCC(=O)N1CCN(c2ccccn2)CC1)c1cccs1 returned ClpP mod -1.8%, D2 PAM 9.5, gsp ag 0.8% and gsp antag 5.6%.
C=CCN(C(=O)Nc1ccc2c(c1)nc(C)n2C)c1ccccc1 was read as Menin-MLL FL inh 2.3, TRPV1 potentiator -1.3, ClpP mod 1.8%, Sfp inh 17.6%, D2 PAM -1.2, gsp ag -73.0% and gsp antag 8.2%.
`CCOC(=O)c1cccc(NC(=O)Nc2ccc3c(c2)C(=O)OC3)c1` gave Menin-MLL FL inh 1.5, TRPV1 potentiator -19.2, Sfp inh 8.3%, D2 PAM -1.8, gsp ag 17.1%[15.4 µM] and gsp antag 6.9%.
For O=C(O)c1sccc1S(=O)(=O)c1ccccc1 the results were Menin-MLL FL inh 3.5, TRPV1 potentiator 0.0, ClpP mod inconclusive, Sfp inh 4.8%, D2 PAM -3.5, gsp ag 14.6% and gsp antag 9.0%.
COc1cccc(C(=O)O/N=C/c2ccc(Sc3ccc(C)cc3)nc2)c1 was read as Menin-MLL FL inh 1.2, TRPV1 potentiator 16.0, ClpP mod inconclusive, Sfp inh 9.8%, D2 PAM -18.1, gsp ag -0.4% and gsp antag 5.6%.
For Cc1ccc(OCC(=O)OC(C)CN(C)Cc2ccccc2)cc1 (stereo unspecified) the results were TRPV1 potentiator 6.8, ClpP mod -0.2%, Sfp inh 0.1%, D2 PAM -13.3, gsp ag -1.7%[15.4 µM] and gsp antag 6.3%.
`COc1ccc(OC)c(S(=O)(=O)Nc2ccc(CC(=O)O)cc2)c1` gave Menin-MLL FL inh 0.2, TRPV1 potentiator -2.8, ClpP mod -2.6%, Sfp inh 28.4%, D2 PAM -4.4, gsp ag -28.0% and gsp antag 3.1%.
Cc1ccc2nc(NCCNC(=O)c3ccccc3)c(C#N)cc2c1 was read as Menin-MLL FL inh -0.3, TRPV1 potentiator -2.9, ClpP mod -11.1%, Sfp inh -5.6%, D2 PAM -6.9, gsp ag 0.3% and gsp antag 7.1%.
For CCC(C)c1ccc(NC(=S)Nc2ccc(OC)c(OC)c2)cc1 (stereo unspecified) the results were Menin-MLL FL inh 1.7, TRPV1 potentiator -21.0, ClpP mod 0.3%, Sfp inh -1.9%, D2 PAM 1.0, gsp ag -19.9% and gsp antag 2.6%.
`O=C(CSCc1c(F)cccc1Cl)NCc1ccncc1` gave Menin-MLL FL inh -3.6, TRPV1 potentiator -7.7, Sfp inh -11.3%, D2 PAM 0.8, gsp ag inconclusive and gsp antag 3.7%.
Cc1cccc(-n2c(SCC(=O)N3CC(=O)Nc4ccccc43)nc3ccccc3c2=O)c1C was read as Menin-MLL FL inh 4.7, TRPV1 potentiator 23.2, ClpP mod -6.3%, Sfp inh -17.0%, D2 PAM 1.8, gsp ag -4.4% and gsp antag inconclusive.
Screening Cc1ccc(CNC(=O)c2ccccc2N(C)S(C)(=O)=O)cc1 returned Menin-MLL FL inh 3.5, TRPV1 potentiator 0.9, Sfp inh inconclusive, D2 PAM -3.4, gsp ag -15.9% and gsp antag 7.2%.
`CCCn1c(C)cc(/C=C(\C#N)C(=O)OCC(=O)N(CC)c2c(N)n(Cc3ccccc3)c(=O)[nH]c2=O)c1C` gave ClpP mod -5.8%, D2 PAM -12.8, gsp ag -4.0% and gsp antag -7.6%.
`COc1ccc(N(Cc2cc3cc(OC)ccc3[nH]c2=O)S(=O)(=O)c2ccc(NC(C)=O)cc2)cc1` gave TRPV1 potentiator 0.2, ClpP mod 4.1%, Sfp inh 3.1%, D2 PAM 50.2*, gsp ag -1.8% and gsp antag -19.0%.
CCOC(=O)N/N=C/c1cn(CCCOc2ccccc2)c2ccccc12 was read as TRPV1 potentiator -7.8, ClpP mod 28.2µM*, Sfp inh 2.4%, D2 PAM -9.3, gsp ag 11.3%[15.4 µM] and gsp antag -7.3%.
`Cc1ccccc1N1CCN(C2CCCN(C(=O)CN3CCCC3=O)C2)CC1` (stereo unspecified) gave TRPV1 potentiator 1.4, ClpP mod -1.8%, Sfp inh 13.7%, D2 PAM -12.6, gsp ag inconclusive and gsp antag 8.4%.
For CN(C)S(=O)(=O)c1ccc(N2CCCC2)c(C(=O)Nc2ccc(C(N)=O)cc2)c1 the results were TRPV1 potentiator 6.5, ClpP mod 0.6%, D2 PAM -2.7, gsp ag -15.3% and gsp antag 11.0%.
For CN1CCN(c2ccccc2NC(=O)Cc2ccc(Cl)cc2)CC1 the results were Menin-MLL FL inh 1.6, TRPV1 potentiator -8.7, ClpP mod -3.0%, Sfp inh 14.4%, D2 PAM -0.6, gsp ag 0.2% and gsp antag 9.3%.
Screening COc1ccc(C2c3ccc(O)cc3Oc3ncn(Cc4ccco4)c(=N)c32)cc1OC (stereo unspecified) returned Menin-MLL FL inh 9.9, TRPV1 potentiator -3.1, ClpP mod -0.9%, Sfp inh 1.4%, D2 PAM -0.3, gsp ag 2.2% and gsp antag -1.6%.
COc1ccccc1C(C)NCC(=O)NCC(=O)Nc1ccc(F)c(F)c1F (stereo unspecified) was read as Menin-MLL FL inh -6.4, TRPV1 potentiator -5.1, Sfp inh 5.8%, D2 PAM -19.3, gsp ag 21.2% and gsp antag 5.3%.
COc1cccc(C(=O)Nc2nnc(-c3ccc(OC)cc3OC)s2)c1 was read as Menin-MLL FL inh 4.2, TRPV1 potentiator -3.4, Sfp inh -15.6%, D2 PAM -4.7, gsp ag -1.0%[15.4 µM] and gsp antag 10.6%.
Cc1cc(C)nc(NC(=O)c2cccc(Cl)c2)n1 was read as Menin-MLL FL inh -6.3, TRPV1 potentiator -5.5, ClpP mod -2.4%, Sfp inh 8.7%, D2 PAM -10.1, gsp ag -48.1%[inhibitor] and gsp antag 1.4%.
`COc1ccc(S(=O)(=O)N2CCCCC2)cc1NC(=O)COc1ccccc1` gave TRPV1 potentiator 2.2, ClpP mod -7.1%, D2 PAM -9.5, gsp ag -3.5%[15.4 µM] and gsp antag 0.3%.
Screening Cc1nccn1CC(O)Cn1c2ccccc2c2ccccc21 (stereo unspecified) returned Menin-MLL FL inh -0.2, TRPV1 potentiator 1.6, ClpP mod -3.1%, Sfp inh -7.2%, D2 PAM -7.8, gsp ag -6.3% and gsp antag 0.8%.
Screening NNC(=O)COc1ccc(-c2n[nH]c(C(F)(F)F)c2-c2ccc(Br)cc2)c(O)c1 returned Menin-MLL FL inh 8.1, TRPV1 potentiator -28.5, ClpP mod -1.4%, Sfp inh -15.1%, D2 PAM -2.1, gsp ag 3.8% and gsp antag 17.9%.
For NC(=O)C1CCN(c2ncnc3c(-c4ccccc4)nsc23)CC1 the results were Menin-MLL FL inh -0.2, TRPV1 potentiator -14.3, ClpP mod -21.6%, Sfp inh 16.1%, D2 PAM -7.0, gsp ag inconclusive and gsp antag -2.2%.
Screening Nc1cccc(-n2nnnc2CN2CCOCC2)c1 returned Menin-MLL FL inh inconclusive, TRPV1 potentiator 1.5, ClpP mod -2.5%, Sfp inh 5.2%, D2 PAM -18.5, gsp ag 4.0% and gsp antag 5.8%.
For Cc1ccc(SCCC(=O)N/N=C/c2ccncc2)cc1 the results were Menin-MLL FL inh -1.1, TRPV1 potentiator -22.2, Sfp inh -29.9%, D2 PAM -9.0, gsp ag 10.2%[15.4 µM] and gsp antag 5.7%.
For COc1ccc(Nc2ncnc3ccccc23)c(OC)c1 the results were Menin-MLL FL inh 1.3, TRPV1 potentiator 1.6, ClpP mod -4.2%, Sfp inh 3.9%, D2 PAM -5.7, gsp ag -3.3% and gsp antag -6.5%.
O=C(Cc1ccccc1)NCC(=O)OCc1ccccc1F was read as TRPV1 potentiator -26.6, ClpP mod 0.5%, Sfp inh 8.3%, D2 PAM 8.0, gsp ag inconclusive and gsp antag -0.5%.

Fetched by structure from above:
Screening COc1ccc(C2c3ccc(O)cc3Oc3ncn(Cc4ccco4)c(=N)c32)cc1OC (stereo unspecified) returned Menin-MLL FL inh 9.9, TRPV1 potentiator -3.1, ClpP mod -0.9%, Sfp inh 1.4%, D2 PAM -0.3, gsp ag 2.2% and gsp antag -1.6%.
For CN(C)S(=O)(=O)c1ccc(N2CCCC2)c(C(=O)Nc2ccc(C(N)=O)cc2)c1 the results were TRPV1 potentiator 6.5, ClpP mod 0.6%, D2 PAM -2.7, gsp ag -15.3% and gsp antag 11.0%.

Remaining list, next part:
Screening O=C(NCCc1ccccc1)c1noc2c1CCCCC2 returned Menin-MLL FL inh 0.0, TRPV1 potentiator -8.6, ClpP mod 0.7%, Sfp inh 17.3%, D2 PAM -6.0, gsp ag -24.7% and gsp antag 5.8%.
Screening CCOc1ccc(N=Nc2c(C)[nH]n(-c3ccccc3)c2=O)cc1 returned Menin-MLL FL inh inconclusive, TRPV1 potentiator 18.5, Sfp inh inconclusive, D2 PAM -2.7, gsp ag -52.0%[inhibitor] and gsp antag 2.4%.
Screening O=c1[nH]c2ccccc2c(=O)n1Cc1ccccc1 returned Menin-MLL FL inh -0.9, TRPV1 potentiator -4.3, ClpP mod 35.5µM*, Sfp inh 12.6%, D2 PAM -19.5, gsp ag -10.6% and gsp antag 8.1%.
Screening O=C1OCC(c2ccccc2)=C1c1ccccc1[N+](=O)[O-] returned Menin-MLL FL inh 0.0, TRPV1 potentiator -8.3, Sfp inh 11.4%, D2 PAM -5.4, gsp ag -5.6% and gsp antag -13.8%.
Screening CN1C(=O)C2(NCCc3c2[nH]c2ccccc32)c2ccccc21 (stereo unspecified) returned Menin-MLL FL inh -0.4, TRPV1 potentiator 10.4, ClpP mod 1.5%, Sfp inh -0.4%, D2 PAM -10.1, gsp ag -20.3% and gsp antag 4.9%.
CCC/C(O)=C1\C(=O)CC(C)(C)CC1=Nc1ccccc1OC was read as Menin-MLL FL inh -0.6, TRPV1 potentiator -23.8, ClpP mod 0.6%, Sfp inh 8.9%, D2 PAM -9.2, gsp ag 1.1% and gsp antag -10.7%.
`Cc1ccc(O)c(C(CC(=O)N2CCCC2)c2ccccc2)c1` (stereo unspecified) gave Menin-MLL FL inh 1.1, TRPV1 potentiator -7.6, ClpP mod 1.1%, Sfp inh -0.6%, D2 PAM -21.5, gsp ag -10.8% and gsp antag -7.9%.
O=C(OCc1nnc(-c2ccc([N+](=O)[O-])cc2)o1)c1ccc(F)c(S(=O)(=O)N2CCOCC2)c1 was read as TRPV1 potentiator -16.5, D2 PAM 4.9, gsp ag 14.0%[15.4 µM] and gsp antag -19.1%.
